Bioassay records (PubChem BioAssay)
VDR inhibitor = vitamin D3 receptor (human) inhibition; Potency, µM, inactives show max response, negative = inhibition, usual class: inhibitors; VDR-SRC2-3 peptide fluorescence polarization, 2 h; 400,000 tested, 0.93% active; AID 504847; active = well fitted inhibition curve with a large enough effect; inconclusive = small, poorly fitted or top-dose-only effect, or another doubt; inactive = no such curve, though single readings can be large or run the other way; note: series mostly up to about 120 µM
Target sequence (P11473 whole entry, looked up): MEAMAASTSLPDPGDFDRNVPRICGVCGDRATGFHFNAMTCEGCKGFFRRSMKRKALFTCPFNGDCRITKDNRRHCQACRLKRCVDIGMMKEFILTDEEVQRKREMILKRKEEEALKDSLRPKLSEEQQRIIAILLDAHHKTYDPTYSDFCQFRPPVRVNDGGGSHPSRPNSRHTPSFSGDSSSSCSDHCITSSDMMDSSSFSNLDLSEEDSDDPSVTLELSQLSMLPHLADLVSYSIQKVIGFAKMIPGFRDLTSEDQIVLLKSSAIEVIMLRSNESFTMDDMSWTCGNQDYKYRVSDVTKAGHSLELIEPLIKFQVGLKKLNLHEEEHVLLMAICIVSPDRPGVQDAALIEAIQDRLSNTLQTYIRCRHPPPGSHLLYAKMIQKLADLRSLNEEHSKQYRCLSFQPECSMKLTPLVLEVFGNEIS
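After 23 nl compound addition and a short centrifugation, plates sat for 2 hours at ambient temperature; polarization of fluorescence then indicated loss of VDR binding to peptide SRC2-3.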
Active calls of the source: *; ? = inconclusive; & = joins results of further samples; [ ] = dose if it differs, or a comment. % is set by controls: 0 for no effect and ±100 for the full control effect; potency is the fitted concentration of half-maximal effect. Not all compounds are listed, so the mix of outcomes need not match the whole.

SMILES	VDR inhibitor
COc1ccc(CCNC(=O)c2ccc(NC(=O)CC3SC(N4CCCCC4)=NC3=O)cc2)cc1 (centres undefined)	1%
COc1ccccc1NS(=O)(=O)c1ccc2c(c1)OCCO2	22%
CCn1c(SCC(=O)NCC2CCCO2)nc2c([nH]c3ccccc32)c1=O (centres undefined)	-18%
CCc1ccccc1NC(=O)Cn1c(=O)n(-c2ccc(CC(=O)NCC3CCCO3)cc2)c(=O)c2ccccc21 (centres undefined)	2%&3%
COc1cc(C(=O)/C=C/c2cccnc2)c([N+](=O)[O-])cc1OC	50µM*
CCOc1ccccc1NC(=O)C(CC)n1c(C(=O)OC)cc2occc21 (centres undefined)	-21%
Cc1ccc(C2=CSC3=NS(=O)(=O)CCN23)cc1	-10%
CCOc1ccc(NC(=O)Cn2nnc(C(=O)OC)c2C(=O)OC)cc1	-14%
COc1ccc(-c2ccc(=O)n(CC(=O)Nc3ccccc3C(F)(F)F)n2)cc1	6%
Cc1nn(-c2ccc(F)cc2)c2sc(C(=O)OCC(=O)N3CCC(C)CC3)cc12	-22%
CCc1ccc(CNC(=O)c2ccc3c(c2)nc2n3CCOC2)cc1	15%
COc1ccccc1Nc1ncc(-c2cccs2)s1	?
COc1cc(Cl)c(C)cc1Nc1ncnc2c1nc1n2CCCC1	4%
O=C(N/N=C/c1ccc(O)cc1O)C1CC1	-10%
CCN(CCCNC(=O)CCNC(=O)Cn1cnc2ccccc2c1=O)c1cccc(C)c1	-13%
O=C(COc1ccc([N+](=O)[O-])cc1)NCC(c1cccs1)N1CCOCC1 (centres undefined)	-10%
CCN(CC)C(=O)[C@H]1CC(CC(=O)NCC23CC4CC(CC(C4)C2)C3)C(=O)N2CCc3c([nH]c4ccccc34)[C@]12C (some centres undefined)	-17%
C/C=C/c1ccc(OC)c(OC(C)=O)c1	3%
NNC(=O)c1cc(-c2ccco2)[nH]n1	-13%
CC(=O)N1c2ccccc2NC2=C(C(=O)CCC2)C1c1cccnc1 (centres undefined)	0%
CC(=O)c1cccc(NS(=O)(=O)c2ccc(N/C=C\C(=O)c3ccc(C)cc3)cc2)c1	-5%
O=S(=O)(NC(=S)c1ccccc1)c1ccc(Cl)cc1	-10%
CC(C)CCOC(=O)C(C)Sc1n[nH]c(=O)[nH]c1=O (centres undefined)	4%
CCn1c(=O)n(CC)c2cc(N3CCCC3)c(NC(=O)c3c(F)cccc3F)cc21	0%
CCC(=O)Nc1ccccc1C(=O)N1CCCC1	5%
Cc1ccc(OCCn2cc(C=O)c3ccccc32)cc1	5%
COC(=O)c1c(NC(=O)COC(=O)C2CCC2)sc(C)c1C	-18%
CCCN[C@H]1CCc2nc(N)sc2C1	-21%&-2%
CN1c2ccc(Cl)cc2-c2nc(SCC(=O)NCc3ccc(F)cc3)ncc2S1(=O)=O	6%
COc1cc(C)ccc1OCc1cc(C(=O)N2CCN(C)C[C@@H]2c2ccccc2)no1	-21%

Two entries from above in a different format:
VDR inhibitor	molecule
6%	CN1c2ccc(Cl)cc2-c2nc(SCC(=O)NCc3ccc(F)cc3)ncc2S1(=O)=O
-21%	COc1cc(C)ccc1OCc1cc(C(=O)N2CCN(C)C[C@@H]2c2ccccc2)no1

Next structures
SMILES	VDR inhibitor
NNC(=O)C1CCCn2c1nc1sc3c(c1c2=O)CCCC3 (centres undefined)	-2%
Cc1ccc(SCC(=O)c2c(C)[nH]c3ccccc23)cc1	-7%
CC(c1ccco1)N(C(=O)c1ccccc1F)c1ccccn1 (centres undefined)	-1%
Cc1cc(C)cc(C(=O)Nn2cnnc2)c1	0%
Cc1ccccc1NC(=O)Cn1cc(C(=O)c2ccco2)c2ccccc21	1%
CC(=O)Nc1ccc(/C(C)=N/NS(=O)(=O)c2ccc(C)cc2)cc1	-2%
COc1ccc(C2C(C(=O)Nc3ccccc3)=C(C)Nc3nc(-c4ccc(Cl)cc4)nn32)cc1 (centres undefined)	-12%
CC(CNC(=O)COC(=O)c1cccs1)c1ccccc1 (centres undefined)	9%
c1ccc(N2CCN(Cc3cn4ccccc4n3)CC2)cc1	-1%
O=C(CN1C(=O)NC2(CCCCC2)C1=O)Nc1ccc2c(c1)OCCCO2	18%
CC(C)c1nc(N2CCOCC2)c(C#N)c2c1COC(C)(C)C2	16%
O=C(CN1CCN(C(=S)NC2CCCC2)CC1)Nc1ccc(Oc2ccccc2)cc1	-10%
CCc1ccc(C2CC(=O)N(c3cccc(F)c3)C3=C2C(=O)OC3)cc1 (centres undefined)	-5%
Cc1cc(N/N=C/c2c[nH]c3ccccc23)c2ccccc2n1	-2%
CSc1ccc(/C=C/C(=O)c2ccc(NC(C)=O)cc2)cc1	-5%
CCOC(=O)N1CCN(C(=O)c2ccc(NC(C)=O)cc2)CC1	-8%
Cc1ccc(OCCn2c3ccccc3n3nc(C)c(=O)nc23)cc1	-3%
CC(=O)Nc1ccc(Cl)cc1C(=O)O	7%
COC(=O)c1ccc(NC(=O)C2CCN(C(=O)Nc3ccccc3)CC2)cc1	-13%
COc1cccc(NS(=O)(=O)c2cc(C)ccc2OC)c1	?
COCCNC(=O)COc1ccc(C)cc1C(=O)c1cc(C#N)c(=O)n(C2CC2)c1	0%
Cc1ccc(NS(=O)(=O)c2ccc3c(c2)NC(=O)CO3)cc1	-12%
Cc1ccc(-c2nnc3c4ccccc4c(C)nn23)cc1S(=O)(=O)N1CCN(C)CC1	10%
O=C(O)c1ccc(COc2c(F)c(F)c(F)c(F)c2F)o1	5%
CCc1noc(C)c1C(=O)N1CCN(S(=O)(=O)c2ccc(Cl)s2)CC1	8%
O=C(NCc1ccc(Cl)cc1)c1cc2cccc3c2n1CCS3	-3%
Cc1ccc2nc(C)c3c(c2c1)N(c1ccc(F)cc1)CC3	4%
O=C(NCCN1C(=O)S/C(=C\c2cccnc2)C1=O)c1ccc(S(=O)(=O)N2CCCC2)cc1	-10%
COc1ccc(OC)c(Cc2nnc(CCC(=O)NCc3nc4ccccc4s3)o2)c1	-3%
CCOc1ccc(NC(=O)Nc2nc(SCC)ns2)cc1	-3%

Structures shown so far with an aryl methoxy group:
SMILES	VDR inhibitor
COc1ccc(CCNC(=O)c2ccc(NC(=O)CC3SC(N4CCCCC4)=NC3=O)cc2)cc1 (centres undefined)	1%
COc1ccccc1NS(=O)(=O)c1ccc2c(c1)OCCO2	22%
COc1cc(C(=O)/C=C/c2cccnc2)c([N+](=O)[O-])cc1OC	50µM*
COc1ccc(-c2ccc(=O)n(CC(=O)Nc3ccccc3C(F)(F)F)n2)cc1	6%
COc1ccccc1Nc1ncc(-c2cccs2)s1	?
COc1cc(Cl)c(C)cc1Nc1ncnc2c1nc1n2CCCC1	4%
C/C=C/c1ccc(OC)c(OC(C)=O)c1	3%
COc1cc(C)ccc1OCc1cc(C(=O)N2CCN(C)C[C@@H]2c2ccccc2)no1	-21%
COc1ccc(C2C(C(=O)Nc3ccccc3)=C(C)Nc3nc(-c4ccc(Cl)cc4)nn32)cc1 (centres undefined)	-12%
COc1cccc(NS(=O)(=O)c2cc(C)ccc2OC)c1	?
COc1ccc(OC)c(Cc2nnc(CCC(=O)NCc3nc4ccccc4s3)o2)c1	-3%

The list continues.
SMILES	VDR inhibitor
CN(C(=O)c1cccc(NC(=O)Cc2ccc(NC(=O)C3CCN(S(=O)(=O)c4cccc([N+](=O)[O-])c4)CC3)cc2)c1)C1CCCCC1	-19%
CC(=O)Oc1cc2oc(=O)cc(C)c2cc1Cl	-2%
CN(C(=O)COC(=O)c1cc(S(=O)(=O)N2CCOCC2)ccc1F)C1CCS(=O)(=O)C1 (centres undefined)	-25%
COc1ccc(CCNC(=O)c2ccc3[nH]c(C)c(C)c3c2)cc1OC	5%
CCC1Cc2c(nc(N)c3c(N)nc(N4CCOCC4)c(C#N)c23)O1 (centres undefined)	-9%
COC(=O)c1nn(-c2ccccc2)c(-c2ccccc2)c1C(=O)c1ccccc1	13%
COC(=O)c1[nH]c2c(c1C)C(=O)CC(c1cc(OC)c(OC)c(OC)c1)C2 (centres undefined)	-20%
OCc1cn(-c2ccccc2)nc1-c1cc2ccccc2o1	31%[activator]
Cc1ccccc1NC(=O)c1nnn(-c2ccc3c(c2)OCCO3)c1N	-4%
O=C(COC(=O)Cc1cccs1)Nc1ccccc1Cl	-1%
Cc1cc[n+](-c2[nH]c(=O)sc2/C=N/N=C(\[O-])c2ccccc2)cc1	-15%
Cc1ccc2c(C(=O)CN3CCC4(CC3)OCCO4)c(C)[nH]c2c1	4%
COC(=O)C1CC2=C(CCC2=O)N(c2ccccc2)C1=O (centres undefined)	3%
O=C(CSc1nc2ccccc2nc1Cc1ccc(Cl)cc1)Nc1ccc2c(c1)OCO2	6%
COc1ccc(Nc2ccncc2[N+](=O)[O-])cc1	-18%
O=C(CCn1c(=O)c2sccc2n(Cc2cccc(F)c2)c1=O)NCc1ccc2c(c1)OCO2	4%
COc1ccc(C)cc1NC(=O)c1cc(S(=O)(=O)N2CCOCC2)cn1C	-4%&-4%
CCc1cccc(C)c1NC(=O)CN(C)S(=O)(=O)c1cccc2nsnc12	-1%
COc1cccc(NC(=O)C(C)Oc2ccccc2)c1 (centres undefined)	3%
COc1cccc(C2NC(=S)NC(C)=C2C(=O)c2ccccc2)c1OC (centres undefined)	6%
O=c1cc(N2CCCCCC2)[nH]c(=O)n1-c1ccccc1Cl	-14%
Cc1cccc(N2CN(Cc3ccco3)CNC2=S)c1	-8%
CC(=O)c1ccc(NS(=O)(=O)c2cc3c(cc2C)N(C)CCO3)cc1	-17%
COc1ccc(C(=O)NCCn2cc(SCC(N)=O)c3ccccc32)cc1	-11%
Cc1c(C(=O)N(C)Cc2ccccc2)oc2ccc(S(=O)(=O)N3CCCC3)cc12	12%
NNC(=O)c1cc(-c2ccc(N)cc2)nc2ccc(Br)cc12	4%
COc1ccc(-c2nnc(SC(C)C(=O)Nc3nccs3)n2-c2ccccc2)cc1OC (centres undefined)	-18%
O=[N+]([O-])c1ccc2nc(CCCc3nc4ccc([N+](=O)[O-])cc4[nH]3)[nH]c2c1	5%
CCN1CCc2c(sc(-n3cccc3)c2C(CCC(C)C)NC(=O)NCCC(=O)OC)C1 (centres undefined)	-2%
Cc1oc(-c2ccc(F)cc2)nc1CN1CCCC(C(=O)N2CCOCC2)C1 (centres undefined)	-10%

Of the compounds above, these contain a cyano group:
SMILES	VDR inhibitor
CC(C)c1nc(N2CCOCC2)c(C#N)c2c1COC(C)(C)C2	16%
COCCNC(=O)COc1ccc(C)cc1C(=O)c1cc(C#N)c(=O)n(C2CC2)c1	0%
CCC1Cc2c(nc(N)c3c(N)nc(N4CCOCC4)c(C#N)c23)O1 (centres undefined)	-9%

The results go on.
SMILES	VDR inhibitor
O=C(Nc1cccc(-c2nc3ncccc3o2)c1)c1ccc(-c2cccc(Cl)c2Cl)o1	?
Cc1ccc(C(O)P(=O)(OCCC(C)C)c2ccc(N(C)C)cc2)cc1 (centres undefined)	14%
COc1ccc(C(=O)CCC(=O)Nc2ccc(Cl)cc2)cc1	16%
COc1ccc(NC(=O)c2sc3nc(-c4ccc(OC)cc4)cc(C(F)(F)F)c3c2N)cc1	-25%
Cc1cc([N+](=O)[O-])nn1CC(=O)NCCc1c[nH]c2ccccc12	3%
Cc1ccc(NC(=O)CNc2ccc(Cl)c(Cl)c2)cc1S(=O)(=O)N(C)C	13%
CSc1ccccc1NC(=O)Nc1ccccc1	-3%
COc1cccc(N=CC2=C(O)CC(C)(C)CC2=O)c1	17%
CCOc1ccc(N(C)C(=O)c2oc(=O)c3ccccc3c2-c2ccccc2)cc1	-5%
CCn1c(NC(=O)c2ccc(F)cc2)c2ccccc2nc1=O	-5%
Cc1ccc2c(c1)C1(OCCCO1)C(=O)N2CC#N	10%
Cn1c(=O)c2c(SCC(=O)Nc3ccc(F)cc3F)nc(C3CCCC3)nc2n(C)c1=O	-6%
O=C(COc1ccc(C(=O)c2ccccc2)cc1)NC1CCCCC1	-25%
Cc1ccc(C)c(NC(=O)N2CCc3cc(S(=O)(=O)N4CCC(C)CC4)ccc32)c1	14%
CCN(CC)C(=O)c1cn(CCC#N)nc1-c1ccc2ccccc2c1	8%
Cn1cc([C@@H]2C[C@H]3CN(C4CCCC4)C(=O)[C@]34CCCN24)c(-c2ccccc2)n1	-7%
COc1cccc2c(=O)n(CC(=O)N3CCC(C)CC3)ccc12	-14%
COc1ccc(C(=O)CSc2nnc(-c3cc(C)on3)o2)cc1	-14%
O=C(Cn1[nH]c(=O)c2ccccc2c1=O)NNC(=O)c1ccccc1	8%
Cc1cc(C)n(CCO)c(=O)n1	16%
Cc1nc2nc(C)c(CCC(=O)NC3CCCCC3)c(C)n2n1	6%
COCCn1nnnc1C1(N(Cc2cc3cc(C)ccc3[nH]c2=O)CC2CCCO2)CCN(C)CC1 (centres undefined)	3%
CCc1nc(N)nc(N)c1-c1ccc(Cl)cc1	9%&-1%&0%
Cc1cc(F)ccc1S(=O)(=O)Nc1ccccc1C(=O)Nc1ccccc1N1CCOCC1	9%
Cc1ccc(CNC(=O)Cn2c3ncccc3c(=O)n2-c2ccccc2)cc1	0%
CC(=O)c1ccc(NC(=O)Nc2sc(NS(=O)(=O)c3ccccc3)nc2C)cc1	-2%
NNc1nc2c(Cl)cccc2s1	-5%
O=c1[nH]c(C2CCN(S(=O)(=O)Cc3ccccc3)CC2)nc2c1nnn2Cc1ccccc1	4%
COc1ccc(NC(=O)c2cccc(N3C(=O)C4C5C=CC(C6CC56)C4C3=O)c2)cc1 (centres undefined)	-3%
O=C(c1cccc(OC2CCN(Cc3cc(F)cc(F)c3)CC2)c1)N1CCCC1	14%
O=c1[nH]c2ccccc2n1CCCSCCCn1c(=O)[nH]c2ccccc21	-4%
C(=N\Nc1nc(N2CCOCC2)nc(N2CCOCC2)n1)/c1cccnc1	0%

Structures listed so far that bear a hit mark in VDR inhibitor.
SMILES	VDR inhibitor
COc1cc(C(=O)/C=C/c2cccnc2)c([N+](=O)[O-])cc1OC	50µM*
